# StopGo FLuc – Primary qHTS Assay for Foot and Mouth Disease Virus Antivirals against NCGC Sytravon and CBC Compound Libraries: Firefly Luciferase Signal; 0.23% of 120,000 active; HEK cells with a luciferase reporter of 2A StopGo recoding; Potency, µM (series often up to 57.5 µM), for inactives: at the highest dose signal change, negative = less light; AID 1745856, 2022; active = well fitted falling curve with a large enough effect; inconclusive = small, poorly fitted or top-dose-only effect; inactive = no such curve, though single readings can be large or run the other way; note: nearly all actives have a fitted effect of over 60% in size; overnight with compound
# StopGo RLuc – Primary qHTS Assay for Foot and Mouth Disease Virus Antivirals against NCGC Sytravon and CBC Compound Libraries: Renilla Luciferase Signal; 0.32% of 120,000 active; Potency, µM (series often up to 57.5 µM), for inactives: at the top dose signal change, negative = less light; HEK cells with a luciferase reporter of 2A StopGo recoding; AID 1745857, 2022; active means well fitted falling curve with a large enough effect; inconclusive means small, poorly fitted or top-dose-only effect; inactive means no such curve, though single readings can be large or run the other way; note: nearly all actives have a fitted effect of over 55% in size; overnight with compound
# An asterisk follows results filed as active; ? = inconclusive; & = joins results of further samples; [ ] = remark or other dose. % is set by controls: 0 for no effect and ±100 for the full control effect; potency is the fitted concentration of half-maximal effect. Only part of the results is shown. The share of hits here may be higher or lower than overall.
# The first 7 compounds as a preview:
SMILES,StopGo FLuc,StopGo RLuc
Cc1ccc2c(Cl)cc(Cl)c(OCC(=O)N3CCCCCC3)c2n1,-7%,67%[activator]
CN(C)C(=O)Nc1ccc2c(c1)CCC2,7%,-3%
Cc1ccccc1CNS(=O)(=O)c1csc(C(N)=O)c1,-5%,93%[activator]
Cc1cc2n(n1)C(c1cc(C(C)(C)C)c(O)cc1O)Nc1ccccc1-2 (configuration not stated),6%,-20%
O=C(NCCc1ccc(C(F)(F)F)cc1)C1CC2CCCC(C1)C2=O (configuration not stated),11%,-2%
Cc1nc(/C=C/C(=O)N(C)Cc2cccs2)cs1,42%[activator],32%[activator]
Cc1cc(/C(=N\O)C(C)(C)NO)ccc1Cl,0%,0%

# This part in full, previewed entries included:
SMILES,StopGo FLuc,StopGo RLuc
Cc1ccc2c(Cl)cc(Cl)c(OCC(=O)N3CCCCCC3)c2n1,-7%,67%[activator]
CN(C)C(=O)Nc1ccc2c(c1)CCC2,7%,-3%
Cc1ccccc1CNS(=O)(=O)c1csc(C(N)=O)c1,-5%,93%[activator]
Cc1cc2n(n1)C(c1cc(C(C)(C)C)c(O)cc1O)Nc1ccccc1-2 (configuration not stated),6%,-20%
O=C(NCCc1ccc(C(F)(F)F)cc1)C1CC2CCCC(C1)C2=O (configuration not stated),11%,-2%
Cc1nc(/C=C/C(=O)N(C)Cc2cccs2)cs1,42%[activator],32%[activator]
Cc1cc(/C(=N\O)C(C)(C)NO)ccc1Cl,0%,0%
CCOC(=O)Cn1c(=O)c2c3c(sc2n(CCN(C)C)c1=O)COC(C)(C)C3,-13%,-2%
CCCCc1ccc(NC(=O)c2nccnc2N)cc1,194%[activator],2%
COc1ccc(-c2ccc(NS(=O)(=O)c3ccc(F)c(C(F)(F)F)c3)cc2)nn1,9%,90%[activator]
CC1CCN(c2nc3ccccc3nc2C(F)(F)F)CC1,-17%,-5%
O=C(NCc1ccc2c(c1)OCCO2)N1CCN(S(=O)(=O)c2cccc(Cl)c2Cl)CC1,-2%,4%
O=C(NCCc1ccc(F)cc1)c1cc2ccccc2[nH]1,137%[activator],-5%
O=C(Nc1ccc(-c2nnnn2C2CC2)cc1)C1CCCC1,145%[activator],32%
CCN1CCN(CCNC(=O)CCn2ccc3cc(S(=O)(=O)N4CCCCC4)ccc32)CC1,-14%,19%

# Part of the list above in order of length of the SMILES, high to low.
SMILES,StopGo FLuc,StopGo RLuc
COc1ccc(-c2ccc(NS(=O)(=O)c3ccc(F)c(C(F)(F)F)c3)cc2)nn1,9%,90%[activator]
Cc1nc(/C=C/C(=O)N(C)Cc2cccs2)cs1,42%[activator],32%[activator]
CN(C)C(=O)Nc1ccc2c(c1)CCC2,7%,-3%

# Continued.
SMILES,StopGo FLuc,StopGo RLuc
CCOc1ccc(OCC)c(NC(=O)c2cnn(-c3ccc(F)cc3)c2C2CCN(C(=O)OC(C)(C)C)CC2)c1,-25%,-12%
COc1ccc(Cl)cc1NC(=O)c1ncoc1-c1ccco1,-4%,-6%
Cc1cccc(NS(=O)(=O)c2ccc(-c3cnc(C4CC4)o3)cc2)c1,?,41%[activator]
CC(C)(C)OC(=O)N1CCC(c2c(C(=O)Nc3cccc(C(F)(F)F)c3)cnn2-c2ccc(F)cc2F)CC1,-20%,-9%
Cc1ccc(CN(C(=O)c2cc(=O)c3cc(Cl)ccc3o2)c2ccccn2)cc1,0%,111%[activator]
COc1ccc(-c2nnc(C3CCN(S(=O)(=O)c4cccc(Cl)c4)CC3)o2)cc1,-5%,-7%
COc1cc2c(cc1OC)C(COc1ccccc1OC)N(C(=O)c1ccc(S(=O)(=O)N3CCCC3)cc1)CC2 (configuration not stated),19%,17%
N#Cc1nc(-c2ccco2)oc1N1CCN(C(=O)c2ccccc2Cl)CC1,-8%,0%
CCN1c2ccccc2NC2=C(C(=O)CC(C)(C)C2)C1c1ccccc1 (configuration not stated),4%,-3%
Cc1ccccc1OC(=O)CSc1nnc(-c2ccc(F)cc2)o1,-28%,-11%
COc1ccc(C(=O)/C=C/c2ccc(C)cc2)c(OC)c1,56%[activator],?
Cc1ccc(NC(=O)c2cc(C)nn2-c2ccccc2)cc1,71%[activator],14%
Cc1ccc(CC2CC(=O)N(c3ccc4ccccc4n3)C2=O)cc1 (configuration not stated),6%,-11%
COc1ccc(-c2c(C)oc3cc(OC(C)=O)ccc3c2=O)cc1OC,20%,9%
Cc1cccc(NS(=O)(=O)c2ccc(NC(=O)N3CCCC3)cc2)c1,-15%,-8%
CCN(CC)C(=O)c1ccc(CNC(=O)N(C)C(C2CC2)C2CC2)cc1,-6%,11%
COc1cc(C2c3c(oc4ccc(F)cc4c3=O)C(=O)N2c2nc(C)c(C)s2)cc(OC)c1OC (configuration not stated),6%,-21%
COc1ccc(OCc2nnc3sc(-c4ccccn4)nn23)cc1,13%,4%
CN(C1CCCCC1)S(=O)(=O)c1ccc2c(c1)c(=O)c(C(=O)NCc1ccc(Cl)cc1)cn2C,-11%,-9%
Cc1ccc(NC(=O)Cn2c(=O)n(CCc3ccccc3)c(=O)c3sc4ccccc4c32)cc1C,26%,-6%
O=C(CSc1n[nH]c(-c2ccc(F)cc2)n1)NCc1ccccc1Cl,?,?
Cc1coc2c1c(C)cc1oc(=O)c(CC(=O)NCCc3ccc(Cl)cc3)c(C)c12,-15%,-14%
N#C/C(=C\c1cc(Br)c(Br)o1)c1nc2ccccc2[nH]1,74%[activator],5%
CCOCCCN1C(=O)c2ccccc2CC1(C)C(=O)NC1CCCCC1 (configuration not stated),22%,2%
CCOc1ccccc1NC(=O)Cn1nnc(C(=O)NCc2ccccc2)c1N,24%,41%[activator]
CC(C)C(NC(=O)N(C)Cc1ccc(C(F)(F)F)cc1)c1ccc2c(c1)OCCCO2 (configuration not stated),-83%,?
Cn1c(CN2CCCCC2)nc2cc(NC(=O)c3cccc(Br)c3)ccc21,?,?
COc1ccc(C)cc1NC(=O)N1CCN(c2cc(-c3noc(C)n3)ccc2C)CC1,-22%,-20%
C/C(=N/Nc1ccc(F)cc1F)c1ccccc1Br,29%,5%
Cc1ccccc1NC(=O)CSc1nc2ccc(NC(=O)CCc3ccccc3)cc2s1,-10%,-9%
CCSc1nc(N2CCCCC2)c2c(c1C#N)CCCC2,-7%,-17%
O=c1oc2cc(O)ccc2cc1-c1nnc(Nc2ccc(Cl)cc2)s1,0%,1%
Cc1ccc(N2CC(C(=O)NCCS(=O)(=O)N3CCN(c4ccccc4)CC3)CC2=O)cc1 (configuration not stated),6%&-19%,-8%&-7%
COc1cc(/C=C(/C#N)C(=O)c2ccccc2C)cc(Cl)c1O,-2%,6%[1.06 µM]
COc1cccc(C(=O)Nc2cc(C(C)(C)C)no2)c1,186%[activator],11%
Cc1ccccc1/C=C/C(=O)c1c(C)nc2ccccc2c1-c1ccccc1,-25%,-11%[1.06 µM]
Cc1ccccc1CNC(=O)C1CCN(S(=O)(=O)Cc2ccccc2)CC1,-17%,-13%
Cc1ccc(S(N)(=O)=O)cc1NC(=O)c1c(-c2c(Cl)cccc2Cl)noc1C,-12%,5%
Cn1cc(C(=O)O)c(=O)c2cc(S(=O)(=O)N3CCOCC3)ccc21,?,?
COC(=O)c1cnc(N(C)C2CCCCC2)c2ccccc12,16%,10%
COc1ccc(-c2nc3sc(CCNC(=O)C(C)(C)C)c(C)n3n2)cc1,0%,?
CCCOc1ccc(NC(=O)CC2C(=O)N(c3ccccc3)C(=O)N2Cc2ccco2)cc1 (configuration not stated),-3%,8%
CCOc1ccccc1OCc1nn2c(C(C)(C)C)nnc2s1,11%,0%
CN(C)c1ccc(CNC(=O)CCn2c(=O)c3cccn3c3ccc(F)cc32)cc1,-12%,-7%
N#Cc1c(-c2ccccc2)cc(-c2cccs2)nc1SCCS(=O)Cc1ccc(Cl)cc1 (configuration not stated),-3%,17%
Cc1cc(O)c(-c2cc(C(=O)Nc3cccc(C(F)(F)F)c3)[nH]n2)cc1C,-2%,2%
CC(=O)N1CCc2cc(Br)cc(S(=O)(=O)N3CCC(C(=O)N(C)c4cc(C)ccc4C)CC3)c21,-13%,-2%
O=C1CN(C(=O)Cn2ccc3c(Br)cccc32)CCN1,-4%,-11%
Cc1[nH]c2ccccc2c1C(=O)N1CCN(S(=O)(=O)c2ccc(F)cc2)CC1,-1%,14%
Clc1ccc(-n2cc(-c3ccccc3)cc2-c2ccccc2)cc1,102%[activator],315%[activator]
Cc1ccc(-c2cnc(CCC(=O)NCC(c3cccc(F)c3)N(C)C)o2)cc1 (configuration not stated),31%,-1%
CC(=O)c1cn(CC(=O)Nc2ccncc2)c2ccccc12,-4%,1%
CCCc1cc(=O)n2c(C(=O)Nc3ccc(OCC)cc3)c(C(=O)Nc3ccc(C)cc3)sc2n1,-18%,-5%
CCOc1ccccc1C1C(C(=O)OC)=C(C)NC2=C1C(=O)c1ccccc12 (configuration not stated),15%,0%
Cc1ccc2cc(CN(C(=O)c3cccc(Cl)c3)c3ccccc3)c(=O)[nH]c2c1,-2%,-1%
CC1CCCN(S(=O)(=O)c2cc3cc(Br)ccc3oc2=O)C1 (configuration not stated),1%,1%
COc1cccc(/C=C/c2nc(C#N)c(N3CCCC3)o2)c1,1%,-12%
COC(=O)c1ccc(NC(=O)N2CCc3c([nH]c4ccccc34)C2c2ccc(C)cc2)cc1 (configuration not stated),11%,-7%
O=C(COc1ccc(C(=O)c2ccccc2)cc1)NCc1ccccc1CN1CCCC1,-1%,-5%
CC1=C(C(=O)OC(C)C)C(c2ccc(Cl)c(Cl)c2)CC(=O)N1 (configuration not stated),-22%,-23%
# Further compounds:
SMILES,StopGo FLuc,StopGo RLuc
CCN(CC)S(=O)(=O)c1ccc2c(c1)nc(SCC(=O)Nc1ccc(C)cc1)n2CC,34%[activator],38%[activator]
Cc1ccc(-n2c(=O)c3cccnc3n2CC(=O)NCc2ccc(F)cc2)cc1C,-4%,33%[activator]
O=C(CSc1nc2ccccc2c(=O)[nH]1)Nc1ccccc1,140%[activator],0%
CCc1ccc(C(=O)c2cn(CC(=O)Nc3ccc(F)cc3)c3cc4c(cc3c2=O)OCO4)cc1,-25%,-15%
CCCc1cc(=O)n2[nH]c(-c3ccc(C)cc3)nc2n1,0%,-12%
O=C(c1cc(-c2ccc3c(c2)OCCO3)nc2ccccc12)N1CCOCC1,121%[activator],77%[activator]
O=c1oc2ccccc2c(Sc2ccccc2)c1Sc1ccccc1,10%,?
Cn1c(SCc2csc(-c3ccccn3)n2)nnc1C1CC1,121%[activator],6%
CC(c1ccc(N)cc1)c1cn(C)c2ccccc12 (configuration not stated),17%,-11%
CCn1cc(/C=C(\NC(=O)c2ccco2)C(=O)NCCCN2CCOCC2)c2ccccc21,-2%,-8%
CC(C)CC(C)N(C)C(=O)CCc1c[nH]c2ccccc12 (configuration not stated),20%,90%[activator]
CCOC(=O)NC(Nc1ccc(F)c(Cl)c1)(C(=O)OCC)C(F)(F)F (configuration not stated),76%[activator],29%
Cc1cccc(-n2c(SCC(=O)Nc3ccccc3C)nc3c(oc4ccccc43)c2=O)c1,-4%,11%
COc1ccc(OC)c(S(=O)(=O)N2CCN(c3cc(N4CCCC4)nc(C)n3)CC2)c1,7%,99%[activator]
O=C(NCCc1ccccc1)OCc1ccccc1,187%[activator],18%
Cc1cc(=O)n2nc(N3CCC(C(=O)NCc4ccccc4Cl)CC3)sc2n1,-10%,-11%
CCCC12CN3CC(C)(CN(C1)C3c1ccccn1)C2=O (configuration not stated),-15%,-1%
COc1ccc(/C=C(/C#N)c2nc3ccccc3[nH]2)cc1C,90%[activator],130%[activator]
CCOC(=O)C1CCN(c2c(C(=O)c3ccc(OCC)cc3)cnc3ccc(OC)cc23)CC1,?,?
CC(=O)Nc1ccc2oc(-c3ccc(C(C)C)cc3)cc(=O)c2c1,239%[activator],5%
CC(=O)NC(CCS(C)(=O)=O)C(=O)Nc1ccccc1Cl (configuration not stated),-5%,-3%
O=c1c2ccccc2nc(/C=C/c2cccc3ccccc23)n1-c1ccc(Cl)cc1,0%,-8%
Cc1ccc(-c2cc3ccccn3c2)cc1C,58%[activator],-5%[1.06 µM]
COc1ccc(-c2cc(C(F)(F)F)n3nc(C(=O)Nc4cccc(C(F)(F)F)c4)c(Br)c3n2)cc1,-11%,5%
COc1cc(-c2nc3nc(C)cc(C)n3c2Nc2ccc(Cl)cc2)ccc1O,46%[activator],-5%
CC1CCCN(Cc2nc3c(Br)cc(Br)cc3c(=O)[nH]2)C1 (configuration not stated),-10%,-19%

# By substructure, those above containing a tert-butyl group
SMILES,StopGo FLuc,StopGo RLuc
Cc1cc2n(n1)C(c1cc(C(C)(C)C)c(O)cc1O)Nc1ccccc1-2 (configuration not stated),6%,-20%
CCOc1ccc(OCC)c(NC(=O)c2cnn(-c3ccc(F)cc3)c2C2CCN(C(=O)OC(C)(C)C)CC2)c1,-25%,-12%
CC(C)(C)OC(=O)N1CCC(c2c(C(=O)Nc3cccc(C(F)(F)F)c3)cnn2-c2ccc(F)cc2F)CC1,-20%,-9%
COc1cccc(C(=O)Nc2cc(C(C)(C)C)no2)c1,186%[activator],11%
COc1ccc(-c2nc3sc(CCNC(=O)C(C)(C)C)c(C)n3n2)cc1,0%,?
CCOc1ccccc1OCc1nn2c(C(C)(C)C)nnc2s1,11%,0%
